# B2AR ag – activates human beta-2 adrenergic receptor causing internalization; actives 0.43% (n = 340,000); Am2.2-beta2AR cells, FAP receptor internalization, flow cytometry; reference of the scale not given here; response, % (no concentration beside the values); P07550;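 active means response above a set limit, near 3 SD of response in nonfluorescent compounds, cut at about 42% in these data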;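 further: stock transfer was 100 nL into about 11 µL; a reference agonist was the positive control; negative values mostly stem from fluorescent compounds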
# Target sequence (P07550 whole entry, looked up): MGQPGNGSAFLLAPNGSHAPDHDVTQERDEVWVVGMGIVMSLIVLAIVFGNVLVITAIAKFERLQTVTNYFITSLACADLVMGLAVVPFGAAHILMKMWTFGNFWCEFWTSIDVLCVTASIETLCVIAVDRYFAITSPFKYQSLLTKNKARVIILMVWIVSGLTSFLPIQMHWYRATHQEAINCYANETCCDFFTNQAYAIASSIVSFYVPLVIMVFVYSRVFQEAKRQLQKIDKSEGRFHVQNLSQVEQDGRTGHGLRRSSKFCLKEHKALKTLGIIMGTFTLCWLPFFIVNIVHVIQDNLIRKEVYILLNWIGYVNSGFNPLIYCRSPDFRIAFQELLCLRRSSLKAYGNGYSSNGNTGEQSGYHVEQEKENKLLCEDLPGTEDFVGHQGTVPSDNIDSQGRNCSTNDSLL
# RanGTP-Impb inh – inhibitors of RanGTP-importin-beta interaction, primary screen, biochemical, FRET, CFP-Ran, YFP-importin-beta, homogeneous. inhibition, % (no concentration beside the values). cell-free CFP-Ran/YFP-importin-beta FRET ratio. actives 1.1% (n = 300,000);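 active means most replicates above 15%; inconclusive means exactly half above 15%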;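 further: 0% = DMSO wells and 100% = Ran loaded with GDP instead of GTP; wells of about 40 µL received 100 nL stock; the first replicate is given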
# Beta cell apopt – beta cell apoptosis inhibition; protection from apoptosis, % (concentration not given with the values); AID 435005; INS-1E cytokine-induced death, ATP luminescence, 48 h; percent of positive-control rescue, neutral wells zero; actives 0.8% (n = 300,000);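 active means all replicates at 75% or more, or half of them and the mean; inconclusive means half reach 75% but not the mean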;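 further: 0% = cytokine-treated negative control wells and 100% = positive control rescue; higher means more ATP so stronger rescue from cytokine killing; wells of about 40 µL received 100 nL stock; the first replicate is given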
# A1 inh – inhibitors of the anti-apoptotic protein A1, read as caspase activation; actives 0.066% (n = 330,000); AID 2462; caspase activation, % (concentration not given with the values); MEF A1-2A-BIM cells, Caspase-Glo 3/7 luminescence, 3 h; percent of clofoctol response, vehicle zero;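 active means over half of replicate activation scores above 10%, or exactly half above 10 with the replicate mean above 10; inconclusive means replicate mean below 10 yet half the replicates above 10; inactive means over half of replicates below 10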;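 further: wells of about 30 µL received 50 nL stock; many hits fall short of the cut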
# UCH37 inh – blocks the human deubiquitinase UCH37 | Q9Y5K5 | purified proteasome/UCH37, Ub-AMC cleavage fluorescence | inhibition, % (no concentration beside the values) | actives 0.33% (n = 330,000) | AID 588478;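 active means mean of two replicates above 20%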;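 further: 0% = compound-free wells with enzyme and 100% = wells lacking proteasome; stock transfer was 100 nL into about 20 µL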
# Target sequence (Q9Y5K5 whole entry, looked up): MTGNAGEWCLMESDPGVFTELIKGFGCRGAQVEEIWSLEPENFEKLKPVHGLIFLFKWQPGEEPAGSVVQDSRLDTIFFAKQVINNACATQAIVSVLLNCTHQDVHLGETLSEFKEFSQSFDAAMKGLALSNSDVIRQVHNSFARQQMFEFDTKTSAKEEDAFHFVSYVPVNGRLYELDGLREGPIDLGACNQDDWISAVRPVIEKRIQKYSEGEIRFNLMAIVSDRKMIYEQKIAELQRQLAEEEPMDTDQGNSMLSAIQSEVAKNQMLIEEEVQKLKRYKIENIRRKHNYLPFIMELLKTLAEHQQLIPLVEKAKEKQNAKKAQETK
#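 Material: Human UCH37 enzyme supplied as purified proteasome complex | Schedule: 30 min compound-proteasome preincubation then 25 min substrate reaction, room temperature | Detection: AMC fluorescence from Ub-AMC cleavage, excitation 355 nm, emission 460 nm | Benchmarks: Wells without proteasome as full block, compound-free enzyme plus substrate as uninhibited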
# LANA-H2A inh – blocks KSHV LANA binding to histone H2A/H2B; Q9QR71; cell-free LANA-H2A/H2B peptide, fluorescence polarization; inhibition, % (no concentration beside the values); actives 0.6% (n = 320,000); AID 2629; in the data active means inhibition mostly above about 10%, no sharp cut-off; inactive means mostly below about 6.7%;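 further: stock transfer was 7.5 nL into about 10 µL; 0% = median of vehicle wells and 100% = median of positive control wells; one replicate is shown; the record names a cut of 25% in any replicate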
# Calb FLC – C. albicans growth modulation with fluconazole; C. albicans CaCi-2 (fluconazole-resistant clinical isolate) + fluconazole, Alamar Blue growth, 48 h; growth inhibition, % (test concentration not listed); actives 0.57% (n = 300,000);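 active means most replicates above 75%; inconclusive means exactly half above 75%; inactive means most below 75%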;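 further: all wells also contain fluconazole at 8 µg/ml as a sub-toxic cotreatment; 0% = median of DMSO wells and 100% = median of geldanamycin control wells; wells of about 8 µL received 7.5 nL stock; the first replicate is given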
# T cruzi repl – blocks replication of Trypanosoma cruzi; actives 1.4% (n = 300,000); inhibition, % (no concentration beside the values); AID 1885; T. cruzi beta-gal in NIH3T3, luminescence, 90 h;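 active means mean inhibition across valid replicates above about 55%, limit read from the data; inconclusive means mean below that limit but half or more replicates reach it; inactive means mean below it, under half of replicates reach it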;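 further: signal also drops with host cell toxicity which is not excluded here; 0% = plate median of DMSO wells and 100% = zero luminescence signal; higher percent means less beta-gal luminescence so fewer parasites; stock transfer was 50 nL into about 50 µL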
# Starred values were filed as active, the others as inactive; i = inactive; u = inconclusive; x = not tested or not shown. Compounds as they come. About 4.3% of those tested had a hit in this group.
SMILES,B2AR ag,RanGTP-Impb inh,Beta cell apopt,A1 inh,UCH37 inh,LANA-H2A inh,Calb FLC,T cruzi repl
Cc1ccccc1C(=O)N(Cc1cccs1)C1CCS(=O)(=O)C1 (stereo unspecified),3.5,-1.8,-4.2,0.4,5.5,1.5,-0.6,0.4
CN(C)S(=O)(=O)c1ccc2c(c1)nc1n2CCC1,1.4,1.9,-8.7,0.5,-0.6,0.0,0.9,2.9
COc1ccccc1NC(=O)N1C2CCCC1CC(NC(=O)c1ccccc1)C2 (stereo unspecified),-1.1,-0.6,-6.5,0.4,2.5,-2.4,4.6,9.2
Fc1ccc(CSc2nncn2NCc2ccc3c(c2)OCO3)cc1,-7.6,-2.8,0.5,1.7,2.4,-4.0,-13.9,-5.7
Cc1ccc(S(=O)(=O)N2CCOCC2)cc1NC(=O)COc1ccc2c(C)cc(=O)oc2c1,3.5,-2.8,0.9,0.6,-101.1,-7.2,5.9,0.1
CCN(CC)CCCN(Cc1cc2cc3c(cc2[nH]c1=O)OCO3)C(=O)Nc1ccccc1OC,1.6,-12.5,-2.3,-1.1,-11.4,1.3,0.5,-8.7
Cn1cnnc1SCC(=O)Nc1ccc(S(=O)(=O)N2CCOCC2)cc1,-4.9,x,-0.8,0.4,2.6,3.0,x,x
COc1ccccc1NC(=O)CSCc1ccc([N+](=O)[O-])cc1,2.6,-0.2,1.1,-0.1,-0.2,1.0,2.6,-23.1
CN(C)CCNc1ncnc2c1sc1nc(N3CCOCC3)c3c(c12)CC(C)(C)SC3,21.0,10.1,11.0,0.5,-19.1,-1.1,1.2,53.5
CC(C)N(CCc1ccncc1)C(=O)Nc1ccc(F)cc1,2.7,6.0,x,0.0,2.6,-0.9,-0.3,1.4
CCOCCCNC(=O)c1cc(Nc2ccc(OC)cc2OC)nc2ccccc12,0.4,-3.6,4.6,-0.4,-1.4,-2.2,8.4,-7.0
CCCc1ccc(-c2cc(C(=O)N3CCN(c4ccccn4)CC3)c3ccccc3n2)cc1,26.1,-1.5,9.2,0.5,-0.8,-8.8,-3.8,29.0
COc1ccc(-c2oc3ccc(-c4cc(OC)c(OC)c(OC)c4)cc3c2C(=O)c2ccc(OC)nc2)cc1,0.7,-2.5,-4.6,0.9,x,-5.4,-6.1,21.7
COc1cccc(C(=O)NCCSCc2c(F)cccc2Cl)c1,-10.0,3.9,-2.7,1.4,1.3,-1.9,4.4,0.4
CCOC(=O)c1cnc2cc(C)nn2c1-c1ccccc1,-5.5,1.7,-5.1,0.7,5.0,1.2,2.9,8.3
C=CCn1c(SCC(=O)NC2CCCCC2)nnc1-c1ccc(OC)cc1,-0.7,-1.0,-0.3,0.9,3.4,-6.0,-4.8,-8.5
Cc1ccc(NC(=O)CN2C(=O)NC3(CCc4ccccc43)C2=O)cc1 (stereo unspecified),6.6,0.5,-4.8,0.9,1.1,4.3,-6.7,2.0
O=Cc1cn(CC(=O)Nc2ccc(F)cc2)c2ccccc12,-0.8,2.8,3.6,1.3,2.0,0.0,-16.8,-20.1
CC1CCCC(C)N1S(=O)(=O)c1ccc(S(=O)(=O)NCc2ccccc2)cc1 (stereo unspecified),8.2,-1.8,x,-0.7,1.3,3.2,-8.2,0.5
COc1ccccc1C1C2C(=O)N(c3ccccc3)C(=O)C2ON1c1ccccc1 (stereo unspecified),12.3,1.6,-0.8,0.5,1.4,-13.3,6.0,-0.5
COc1ccc(NC(=O)C2CCN(S(=O)(=O)c3ccc(N4CCCC4=O)cc3)CC2)cc1OC,-9.4,u,0.9,-0.7,4.0,-2.4,-6.2,-2.8
Cc1nc(-c2ccc(Cl)cc2)sc1C1(C)CC(c2ccc([N+](=O)[O-])cc2)=NO1 (stereo unspecified),0.9,3.2,-3.1,-0.3,0.4,-1.3,0.9,5.0
O=C(Nc1ccnc(-c2cccnc2)n1)c1ccc(Cl)cc1,14.0,-1.0,-7.1,-0.4,-1.0,-12.1,8.6,-0.9
CCCS(=O)(=O)N1CCCC(C(=O)NCc2ccc(C)cc2)C1 (stereo unspecified),2.1,3.1,-3.9,0.4,-7.0,7.6,-0.1,1.7
Cn1c(=O)[nH]c(=O)c2c1nc(Br)n2C/C=N/NC(=O)c1ccccc1,-3.9,8.3,-1.8,-0.8,x,6.9,-11.2,-1.8
COc1cccc(NC(=O)CSc2nnnn2C(C)C)c1,4.6,2.6,1.2,1.1,-3.6,-0.5,x,1.0
COc1ccc(OC)c(NC(=O)Cn2cc(C#N)c3ccccc32)c1,10.7,-2.1,x,-0.3,-0.3,-1.8,-4.7,-0.5
Cc1noc(C)c1S(=O)(=O)Nc1ccc(C(=O)NC2CCCCC2C)cc1 (stereo unspecified),-6.1,-2.9,-6.5,0.5,0.1,0.5,-8.8,-30.3
Cc1cc(C)n(/N=C/c2c[nH]c3ccccc23)c(=O)c1,3.0,-4.9,-7.6,-1.0,x,-3.2,9.5,-16.3
COc1cc(C2C(C(C)=O)=C(O)C(=O)N2CCc2c[nH]c3ccccc23)ccc1O (stereo unspecified),3.7,u,x,1.7,5.6,0.5,-6.9,-1.8
NC(=NCc1ccc2c(c1)OCO2)NC(=O)c1ccccc1,-6.2,-18.0,x,x,23.8*,x,-8.9,3.1
CCOC(=O)C1CCCN(C(=O)c2cccc(S(=O)(=O)N3CC(C)OC(C)C3)c2)C1 (stereo unspecified),8.9,-0.8,x,x,-0.1,x,2.9,0.2
CC1CN(Cc2nnc(-c3ccccc3)o2)CC(C)O1 (stereo unspecified),4.5,-0.8,0.7,-0.1,3.4,-2.0,-3.8,-2.6
c1cnn(-c2cncc(-n3cccn3)n2)c1,-11.4,-3.0,-1.2,-2.5,-8.2,8.7,15.0,-4.7
O=C(Nc1nc(-c2cccnc2)cs1)c1ccc([N+](=O)[O-])cc1,-6.6,-0.4,1.3,0.0,-0.6,7.9,19.6,47.1
CC(C)(C)NCCCCOc1ccc(F)cc1,-2.4,-1.2,x,0.2,2.4,1.3,3.4,-20.3
COCCn1c(N)c(C#N)c2nc3ccccc3nc21,-7.5,71.5*,-6.3,-0.2,i,-1.6,14.8,-4.1
CN1CCN(CC(O)COCCOc2ccc(Br)cc2)CC1 (stereo unspecified),0.3,-6.5,-15.8,0.5,5.1,0.7,-1.6,58.9*
CSc1nc2ccc(NS(=O)(=O)c3cccc(Cl)c3Cl)cc2s1,12.1,-0.7,-26.9,0.6,2.7,-2.1,5.3,-2.7
C/C(=N\NC(=O)c1ccn[nH]1)c1cn(C)nc1C,-2.8,3.3,1.3,-1.2,x,1.5,-6.3,1.6
Cc1cccc(-n2ccnc2SCC(=O)Nc2nccs2)c1,-1.0,5.7,6.8,-0.6,0.3,-4.4,-8.1,-5.5
CCOC(=O)C1=C(O)/C(=C/c2ccc(OCC(=O)O)c(OCC)c2)SC1=Nc1ccc(C)cc1,-12.9,3.4,-5.9,0.1,8.3,9.9,70.1,10.1
O=C(c1ccco1)N1CCN=C1SCc1ccccc1F,-19.1,-0.8,-26.1,0.0,10.4,-0.6,0.4,1.4
C/C(=N\N1CCN(Cc2ccccc2)CC1)c1ccco1,-9.6,-0.5,-10.6,1.4,x,0.5,-6.5,0.1
Cc1ccc(C(=O)Nc2ccc(S(=O)(=O)N3CCCC3)cc2)o1,2.1,-0.1,-11.0,-1.3,1.1,0.4,0.1,6.8
CCc1nnc(NC(=O)CCC(=O)NCc2ccc(OC)cc2)s1,2.4,0.5,-8.0,1.4,5.2,-4.6,-7.3,-13.8
O=C(Nc1cccc2ccccc12)C1CCN(C(=O)NCc2ccccc2)CC1,-1.2,-2.4,3.4,0.2,2.2,-3.6,2.0,-13.9
CCn1c(=S)[nH]c2cc(Cl)ccc21,-6.0,5.1,-6.1,-0.2,1.3,1.7,3.6,1.2
C/C(=N\NC(=O)Cn1nc(C)c(Br)c1C)c1cccs1,-8.4,-4.4,-5.3,-0.1,x,14.6,-29.2,-3.3
CC1CCCCC12NC(=O)N(CC(=O)OCC(=O)NCc1ccc(F)cc1)C2=O (stereo unspecified),-0.2,x,-0.5,2.2,2.3,-0.1,x,x
O=C(c1cccs1)N1CCN(Cc2ccccn2)CC1,-5.9,-2.0,-8.1,-0.6,-0.7,3.5,-12.4,-3.2

# Filtered by structure: those above containing fluorine
SMILES,B2AR ag,RanGTP-Impb inh,Beta cell apopt,A1 inh,UCH37 inh,LANA-H2A inh,Calb FLC,T cruzi repl
Fc1ccc(CSc2nncn2NCc2ccc3c(c2)OCO3)cc1,-7.6,-2.8,0.5,1.7,2.4,-4.0,-13.9,-5.7
CC(C)N(CCc1ccncc1)C(=O)Nc1ccc(F)cc1,2.7,6.0,x,0.0,2.6,-0.9,-0.3,1.4
COc1cccc(C(=O)NCCSCc2c(F)cccc2Cl)c1,-10.0,3.9,-2.7,1.4,1.3,-1.9,4.4,0.4
O=Cc1cn(CC(=O)Nc2ccc(F)cc2)c2ccccc12,-0.8,2.8,3.6,1.3,2.0,0.0,-16.8,-20.1
CC(C)(C)NCCCCOc1ccc(F)cc1,-2.4,-1.2,x,0.2,2.4,1.3,3.4,-20.3
O=C(c1ccco1)N1CCN=C1SCc1ccccc1F,-19.1,-0.8,-26.1,0.0,10.4,-0.6,0.4,1.4
CC1CCCCC12NC(=O)N(CC(=O)OCC(=O)NCc1ccc(F)cc1)C2=O (stereo unspecified),-0.2,x,-0.5,2.2,2.3,-0.1,x,x

# Assay outcomes from PubChem.
